Assay outcomes (PubChem BioAssay)
rRNA inh HTS = reduced GFP signal of wild-type E. coli, primary screen, bacterial rRNA inhibitor project, GFP/RFP fluorescence, OD600, single point. E. coli WT GFP vs humanized-ribosome RFP mutants, 24 h; stronger effect = lower value; DMSO median 0, no signal -100. GFP signal change (wild-type ribosome), % (test concentration not listed). 350,000 tested, 1.6% active. AID 720706, 2013;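 active = significant combined selectivity score with lowered wild-type GFP, culture density cut under 30%, mutant RFP and density less affected; inactive = any of these conditions unmet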; note: one replicate is shown; some compounds called inactive have numbers as strong as hits
AF4-AF9 inh = inhibitors of AF4 peptide binding to AF9, primary screen, biochemical, AlphaScreen, biotin-AF4 peptide, FLAG-AF9, single point; Protein AF-9 (Homo sapiens), P42568; inhibition, % at 10 µM; 350,000 tested, 0.47% active; AID 651704, 2012;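 active = every replicate reaching a set inhibition limit, whatever the replicate mean, cut at about 25% in these data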;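 note: 0% = plate neutral control median and 100% = total signal loss; the record names both 10 and 1 µM as test concentration; the first replicate is given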
Target sequence (P42568 whole entry, looked up): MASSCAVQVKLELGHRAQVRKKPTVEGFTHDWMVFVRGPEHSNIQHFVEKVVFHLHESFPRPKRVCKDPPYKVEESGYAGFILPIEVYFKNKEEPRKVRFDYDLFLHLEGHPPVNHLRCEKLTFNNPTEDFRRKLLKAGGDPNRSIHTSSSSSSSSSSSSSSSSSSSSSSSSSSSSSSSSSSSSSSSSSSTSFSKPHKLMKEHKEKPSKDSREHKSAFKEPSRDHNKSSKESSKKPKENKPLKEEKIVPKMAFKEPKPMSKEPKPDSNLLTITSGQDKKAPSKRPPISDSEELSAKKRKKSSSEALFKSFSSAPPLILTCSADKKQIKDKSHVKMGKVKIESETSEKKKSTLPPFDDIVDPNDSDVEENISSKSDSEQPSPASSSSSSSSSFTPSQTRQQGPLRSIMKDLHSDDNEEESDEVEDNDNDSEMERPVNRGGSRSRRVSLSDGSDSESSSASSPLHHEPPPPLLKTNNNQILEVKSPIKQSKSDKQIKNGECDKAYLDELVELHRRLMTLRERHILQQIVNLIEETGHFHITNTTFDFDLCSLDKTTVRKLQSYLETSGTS
rRNA inh HTS OD600 = recorded beside rRNA inh HTS, whose call it bears; OD600 change, %; measured here: OD600 growth;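 optical density of the mix in the first replicate; 0 = DMSO median and -100 = no signal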
rRNA inh HTS RFP = also measured in rRNA inh HTS; calls as there; RFP signal change, %; measured here: RFP humanized mutant strains;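 first replicate; 0 = DMSO median and -100 = no signal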
* marks the source's active call; other numbers are inactive results.

SMILES | rRNA inh HTS | rRNA inh HTS OD600 | rRNA inh HTS RFP | AF4-AF9 inh
OC[C@@H]1[C@@H](c2ccc(C#Cc3cccnc3)cc2)[C@H]2CN(Cc3ccccc3F)CCCCN12 | -6 | -11 | 12 | 1.3
CCCC(=O)Nc1ccc2c(c1)C(=O)N(C)C[C@@H](OC)[C@H](C)CN(C(=O)c1cccnc1)[C@@H](C)CO2 | 0 | -5 | -0.6 | 0.5
Cc1noc(C)c1S(=O)(=O)N(C)C[C@@H]1OCCCC[C@@H](C)Oc2ccc(NC(=O)NC3CCCCC3)cc2C(=O)N([C@@H](C)CO)C[C@H]1C | -2 | 1 | 1.3 | 0.7
CO[C@@H]1CN(C)C(=O)c2cc(NC(C)=O)ccc2OC[C@H](C)N(C(=O)Cc2ccccn2)C[C@H]1C | -2 | 2 | -1.6 | 1.0
C[C@@H]1CN([C@H](C)CO)C(=O)c2cc(NC(=O)C3CCCCC3)ccc2O[C@@H]1CN(C)C(=O)NC1CCCCC1 | 1 | -1 | -1.2 | -10
O=C(Nc1ccccc1)N1C[C@H]2[C@@H](c3ccccc31)[C@H](CO)N2C(=O)c1ccccc1F | 3 | 0 | 1.4 | 0.0
Cc1ccc(S(=O)(=O)NCC[C@@H]2CC[C@H](NS(=O)(=O)c3ccccc3Cl)[C@@H](CO)O2)cc1 | -7 | -8 | 0.5 | -0.6
Cc1ccc(S(=O)(=O)Nc2ccc3c(c2)C(=O)N([C@H](C)CO)C[C@@H](C)[C@H](CN(C)C(=O)Nc2ccc(C(F)(F)F)cc2)OCCCC[C@H](C)O3)cc1 | 5 | -8 | -2.3 | -3.5
COc1ccc(S(=O)(=O)N(C)C[C@H]2OCCCC[C@@H](C)Oc3ccc(NC(=O)c4ccncc4)cc3C(=O)N([C@@H](C)CO)C[C@@H]2C)cc1 | -2 | -4 | 2.9 | -4.7
CC(=O)c1cccc(-c2cnc3c(NC=O)cc(-c4ccccc4)cn23)c1 | 3 | -27 | -0.1 | -0.1

Among those listed so far, 6 have nitrogen in an aromatic ring.
SMILES | rRNA inh HTS | rRNA inh HTS OD600 | rRNA inh HTS RFP | AF4-AF9 inh
OC[C@@H]1[C@@H](c2ccc(C#Cc3cccnc3)cc2)[C@H]2CN(Cc3ccccc3F)CCCCN12 | -6 | -11 | 12 | 1.3
CCCC(=O)Nc1ccc2c(c1)C(=O)N(C)C[C@@H](OC)[C@H](C)CN(C(=O)c1cccnc1)[C@@H](C)CO2 | 0 | -5 | -0.6 | 0.5
Cc1noc(C)c1S(=O)(=O)N(C)C[C@@H]1OCCCC[C@@H](C)Oc2ccc(NC(=O)NC3CCCCC3)cc2C(=O)N([C@@H](C)CO)C[C@H]1C | -2 | 1 | 1.3 | 0.7
CO[C@@H]1CN(C)C(=O)c2cc(NC(C)=O)ccc2OC[C@H](C)N(C(=O)Cc2ccccn2)C[C@H]1C | -2 | 2 | -1.6 | 1.0
COc1ccc(S(=O)(=O)N(C)C[C@H]2OCCCC[C@@H](C)Oc3ccc(NC(=O)c4ccncc4)cc3C(=O)N([C@@H](C)CO)C[C@@H]2C)cc1 | -2 | -4 | 2.9 | -4.7
CC(=O)c1cccc(-c2cnc3c(NC=O)cc(-c4ccccc4)cn23)c1 | 3 | -27 | -0.1 | -0.1

Remaining list, next part
SMILES | rRNA inh HTS | rRNA inh HTS OD600 | rRNA inh HTS RFP | AF4-AF9 inh
C[C@@H]1CN([C@H](C)CO)C(=O)c2cc(NC(=O)Cc3ccccc3)ccc2O[C@@H](C)CCCCO[C@@H]1CN(C)C | 5 | 7 | -0.9 | -1.8
O=C(C[C@@H]1CC[C@@H](NC(=O)c2ccc3c(c2)OCO3)[C@H](CO)O1)NCc1ccc(F)cc1 | -2 | 0 | 0.4 | 2.4
C/C=C/c1cnc2c(c1)C(=O)N([C@H](C)CO)C[C@@H](C)[C@@H](CN(C)C(=O)Cc1ccccc1)O2 | 2 | -4 | -3.8 | -2.6
CC(C)NC[C@@H]1[C@H](c2ccc(C3=CCCCC3)cc2)[C@H](CO)N1S(C)(=O)=O | -6 | -8 | 6.2 | 5.7
COc1ccc(NC(=O)Nc2ccc3c(c2)[C@H]2C[C@H](CC(=O)NCC(F)(F)F)O[C@H](CO)[C@H]2O3)cc1 | -3 | -1 | -1.6 | 3.0
Cc1ccc(S(=O)(=O)Nc2ccc3c(c2)C(=O)N([C@H](C)CO)C[C@H](C)[C@@H](CN(C)Cc2ccc(Cl)c(Cl)c2)OCCCC[C@H](C)O3)cc1 | -6 | -21 | 5.2 | 4.0
C[C@@H]1CN([C@@H](C)CO)C(=O)Cc2cc(NC(=O)Cc3ccccc3)ccc2O[C@H]1CN(C)Cc1ccc(-c2ccccc2)cc1 | -3 | -2 | 7.2 | 4.0
C[C@@H]1CN([C@H](C)CO)S(=O)(=O)c2ccc(-c3ccc(C#N)cc3)cc2O[C@H]1CN(C)C | -2 | -1 | -3.6 | -0.1
O=c1c(-c2ccco2)nc2ccccc2n1C(c1ccccn1)c1nc2ccccc2[nH]1 (configuration not stated) | 10 | 16 | 9.4 | 6.2
CC(C)(C)NC(=O)C1(C)CCC(=O)N1CCCn1ccnc1 (configuration not stated) | 2 | 20 | 3.4 | 1.0

Reprinted from above (2 entries):
SMILES | rRNA inh HTS | rRNA inh HTS OD600 | rRNA inh HTS RFP | AF4-AF9 inh
C[C@@H]1CN([C@H](C)CO)C(=O)c2cc(NC(=O)Cc3ccccc3)ccc2O[C@@H](C)CCCCO[C@@H]1CN(C)C | 5 | 7 | -0.9 | -1.8
O=C(C[C@@H]1CC[C@@H](NC(=O)c2ccc3c(c2)OCO3)[C@H](CO)O1)NCc1ccc(F)cc1 | -2 | 0 | 0.4 | 2.4

Next part.
SMILES | rRNA inh HTS | rRNA inh HTS OD600 | rRNA inh HTS RFP | AF4-AF9 inh
O=C(N[C@H]1CC[C@H](CCNC(=O)C2CCCC2)O[C@H]1CO)c1ccccn1 | 4 | 7 | 0.0 | 0.5
CO[C@@H](CN(C)S(=O)(=O)c1cccc(Cl)c1)[C@H](C)CN([C@@H](C)CO)S(=O)(=O)c1cccc(Cl)c1 | -6 | -30 | 12 | -7.4
CC(C)c1cn(CC[C@@H]2CC[C@H](NS(=O)(=O)c3ccccc3)[C@H](CO)O2)nn1 | 1 | 3 | 3.1 | -1.6
COc1cccc(C(=O)N2C[C@H]3[C@@H](c4ccccc42)[C@H](CO)N3C(C)=O)c1 | 3 | 4 | -2.2 | -1.4
C[C@@H]1CN([C@@H](C)CO)C(=O)Cc2cc(NS(=O)(=O)c3ccc(Cl)cc3)ccc2O[C@H]1CN(C)CC1CCCCC1 | -50 | -73 | -8.6 | 5.8
O=C(c1ccccc1F)N1C[C@@H]2[C@H](c3ccccc31)[C@@H](CO)N2C(=O)c1ccccc1 | 1 | 5 | -0.7 | -1.4
C[C@@H]1CN([C@@H](C)CO)C(=O)c2ccccc2-c2ccccc2CO[C@@H]1CN(C)C(=O)CCN(C)C | 5 | 10 | -6.3 | -9.8
C[C@@H]1CN([C@@H](C)CO)C(=O)c2cccc(NS(=O)(=O)c3cn(C)cn3)c2O[C@@H]1CN(C)CC1CC1 | 1 | 22 | -2.3 | -6.8
NCC[C@H]1CC[C@H](NC(=O)c2ccccc2F)[C@@H](CO)O1 | 0 | -3 | 1.3 | 2.8
O=C(O)c1cccc(Br)c1 | 6 | 7 | -3.4 | -0.3
CN1C(=O)c2cc(NC(=O)Cc3ccccc3)ccc2OC[C@H]2O[C@H](CC(=O)O)CC[C@H]21 | -3 | 2 | -3.3 | -1.3
COc1ccccc1CNC(=O)C[C@H]1C[C@@H]2c3cc(NC(=O)C4CCOCC4)ccc3O[C@@H]2[C@H](CO)O1 | 1 | 4 | -1.2 | 1.6
Cc1ccc(S(=O)(=O)Nc2ccc3c(c2)C(=O)N([C@H](C)CO)C[C@@H](C)[C@H](CN(C)C(=O)NC2CCCCC2)OCCCC[C@@H](C)O3)cc1 | 2 | 0 | 4.4 | -3.1
CCCOc1ccc(/C(O)=C2/C(=O)C(=O)N(CCN3CCOCC3)C2c2ccccc2)cc1 (configuration not stated) | -4 | -3 | 0.4 | -0.4
CN(CCc1ccccc1)C(c1ccnc2ccccc12)c1nnnn1-c1ccc2c(c1)OCCO2 (configuration not stated) | -15 | -3 | 1.8 | 2.1
CO[C@@H]1CN(C)C(=O)c2cc(NC(=O)CC(F)(F)F)ccc2OC[C@@H](C)N(C(=O)C2CCCC2)C[C@H]1C | 4 | 9 | 1.4 | -1.1
C[C@@H]1CN([C@H](C)CO)C(=O)c2cc(-c3ccc(C#N)cc3)cnc2O[C@@H]1CN(C)C(=O)c1cccnc1 | 4 | 7 | -2.7 | -2.5
COCCn1c(=S)[nH]c2cc(C(=O)NCc3ccc(F)cc3)ccc2c1=O | -9 | -9 | 1.5 | -1.5
CCS(=O)(=O)NC[C@@H]1[C@@H](c2ccccc2)[C@@H](CO)N1CC1CC1 | 2 | 4 | 0.2 | -3.7
Cc1ccc(F)cc1-c1cc2nc(NCCCN(C)C)n(C)c(=O)c2s1 | 3 | -30 | 1.9 | 2.4
OC[C@@H]1CN(Cc2ccccc2)C[C@H](n2cnc3c(Nc4ccccc4)ncnc32)O1 | -12 | -18 | 0.0 | 1.3
CN(C)C(=O)c1ccc(-c2cccc(-c3nc(C(=O)NCc4ccccc4)cc4c3[C@@H](CCO)N([S@](=O)C(C)(C)C)C4)c2)cc1 | -2 | 1 | 14 | 2.5
CN1[C@@H]2Cn3c(ccc(/C=C/c4ccccc4)c3=O)[C@H]1[C@@H](C(=O)NC1Cc3ccccc3C1)[C@@H]2CO | -8 | -15 | 0.9 | -26
C[C@@H]1CN([C@@H](C)CO)C(=O)c2cc(NC(=O)Nc3ccc(C(F)(F)F)cc3)ccc2O[C@@H](C)CCCCO[C@@H]1CN(C)S(=O)(=O)c1cccs1 | -6 | 9 | -3.9 | -3.7
COc1cccc(-c2cnc3c(NC(C)=O)cc(-c4ccc(C(=O)N5CCOCC5)cc4)cn23)c1 | 2 | 5 | 1.5 | 3.0
O=C(NCCN1CCC(n2c(=O)[nH]c3ccccc32)CC1)c1cccc(Cl)c1 | 0 | 1 | 1.1 | 3.4
O=C(N[C@@H]1C=C[C@H](CC(=O)N2CCc3ccccc3C2)O[C@@H]1CO)C1CCC1 | 2 | 0 | -2.2 | -7.3
CCC(=O)Nc1ccc2c(c1)C(=O)N(C)[C@H]1CC[C@H](CC(=O)NCC3CC3)O[C@H]1CO2 | 2 | 2 | -0.2 | -1.8
CCCNC(=O)C[C@@H]1CC[C@@H]2[C@H](COC[C@H](O)CN2Cc2ccncc2)O1 | 1 | 6 | 0.0 | -1.9
C[C@H](CO)N1C[C@H](C)[C@@H](CN(C)Cc2ccc(C(=O)Nc3ccccc3N)cc2)Oc2c(NC(=O)c3ccncc3)cccc2C1=O | -1 | 3 | 1.3 | 15
CC(C)C#Cc1ccc2c(c1)O[C@H](CN(C)C(=O)c1cccc(F)c1)[C@H](C)CN([C@H](C)CO)S2(=O)=O | -3 | -8 | 3.4 | -9.1
COCC#Cc1ccc([C@H]2[C@H]3CN(C(=O)Nc4ccc(F)cc4)CC(=O)N3[C@H]2CO)cc1 | 0 | 6 | 2.5 | -3.2
CC(C)NC(=O)Nc1ccc2c(c1)CC(=O)N([C@H](C)CO)C[C@H](C)[C@H](CN(C)S(=O)(=O)c1ccccc1)O2 | -4 | -1 | 1.0 | -0.9
C[C@@H]1CN([C@@H](C)CO)C(=O)c2cc(NC(=O)Nc3cccc4ccccc34)ccc2O[C@@H]1CN(C)Cc1ccc(C(=O)Nc2ccccc2N)cc1 | -5 | -1 | 3.6 | 0.2
NC(=O)C1CCCN1Cc1ccc2c(c1)OCO2 (configuration not stated) | 5 | 7 | 1.3 | -2.2
C[C@@H]1CN([C@H](C)CO)C(=O)Cc2cc(NC(=O)C3CCCCC3)ccc2O[C@@H]1CN(C)Cc1ccc(C(F)(F)F)cc1 | -3 | 2 | 2.1 | 1.2
CCCCCCCCN1C(=O)[C@@H](CC(=O)NCCc2ccccc2OC)C[C@@]2(C(=O)OC)C1=C[C@H](C1CCCC1)O[C@@H]2C | 17 | 11 | 0.6 | -4.1
CC(C)NC(=O)N[C@@H]1CC[C@H](CCN)O[C@@H]1CO | 2 | -1 | 0.6 | -1.6
CC(C)(C)c1ccc(S(=O)(=O)NC(=O)C2(C)CCN2C(=O)C2(c3ccc(Cl)cc3)CC2)cc1 (configuration not stated) | -16 | -12 | -3.9 | -3.4
OC(c1ccccc1)(c1ccccc1)C1CCN(CCCOc2ccccc2)CC1 | -47 | -81 | -14 | 4.0
CN1[C@H](CO)[C@@H]2c3ccccc3N(C(=O)Nc3cc(F)ccc3F)C[C@@H]21 | -4 | -4 | 2.7 | -0.1
CN(C)CC(=O)Nc1ccc2c(c1)[C@H]1C[C@H](CC(=O)N3CCN(C)CC3)O[C@H](CO)[C@H]1O2 | 3 | 7 | -1.0 | -0.3
CN(C)CCCNC(=O)[C@H]1[C@H](CO)[C@H]2Cn3c(ccc(C4=CCCC4)c3=O)[C@H]2N1CCC(F)(F)F | 4 | 1 | -1.2 | 8.1
O=C(C[C@H]1C=C[C@@H](NC(=O)C2CC2)[C@H](CO)O1)NC1CCC1 | 2 | 4 | 2.1 | 0.9
O=C(C[C@@H]1C[C@@H]2c3cc(NC(=O)CC4CC4)ccc3O[C@@H]2[C@H](CO)O1)NCc1cccc(F)c1 | 4 | -1 | -1.0 | -1.1
CCCNC(=O)N1CC(=O)N2[C@H](CO)[C@H](c3ccc(-c4ccc(F)cc4)cc3)[C@H]2C1 | 3 | 6 | 2.0 | -5.1

An excerpt; rates above refer to the full screens.
